Screening data as filed in PubChem.
EPAC2 ant val – human EPAC2 antagonism, validation. Q8WZA2. Potency, µM (series often up to 112 µM), for inactives: at the highest dose activity, negative = inhibition, usual class: inhibitors. EPAC2 Rap1B BODIPY-GDP exchange, fluorescence. actives 1.7% (n = 16,000); active = well fitted inhibition curve with a large enough effect; inconclusive = small, poorly fitted or top-dose-only effect; inactive = no such curve, though single readings can be large or run the other way;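 also: 100% = activation by cAMP agonist control; nearly all actives have a fitted effect of over 40% in size; the record reuses the description of the EPAC1 agonist screen; inactives centre near -10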
Target sequence (Q8WZA2 whole entry, looked up): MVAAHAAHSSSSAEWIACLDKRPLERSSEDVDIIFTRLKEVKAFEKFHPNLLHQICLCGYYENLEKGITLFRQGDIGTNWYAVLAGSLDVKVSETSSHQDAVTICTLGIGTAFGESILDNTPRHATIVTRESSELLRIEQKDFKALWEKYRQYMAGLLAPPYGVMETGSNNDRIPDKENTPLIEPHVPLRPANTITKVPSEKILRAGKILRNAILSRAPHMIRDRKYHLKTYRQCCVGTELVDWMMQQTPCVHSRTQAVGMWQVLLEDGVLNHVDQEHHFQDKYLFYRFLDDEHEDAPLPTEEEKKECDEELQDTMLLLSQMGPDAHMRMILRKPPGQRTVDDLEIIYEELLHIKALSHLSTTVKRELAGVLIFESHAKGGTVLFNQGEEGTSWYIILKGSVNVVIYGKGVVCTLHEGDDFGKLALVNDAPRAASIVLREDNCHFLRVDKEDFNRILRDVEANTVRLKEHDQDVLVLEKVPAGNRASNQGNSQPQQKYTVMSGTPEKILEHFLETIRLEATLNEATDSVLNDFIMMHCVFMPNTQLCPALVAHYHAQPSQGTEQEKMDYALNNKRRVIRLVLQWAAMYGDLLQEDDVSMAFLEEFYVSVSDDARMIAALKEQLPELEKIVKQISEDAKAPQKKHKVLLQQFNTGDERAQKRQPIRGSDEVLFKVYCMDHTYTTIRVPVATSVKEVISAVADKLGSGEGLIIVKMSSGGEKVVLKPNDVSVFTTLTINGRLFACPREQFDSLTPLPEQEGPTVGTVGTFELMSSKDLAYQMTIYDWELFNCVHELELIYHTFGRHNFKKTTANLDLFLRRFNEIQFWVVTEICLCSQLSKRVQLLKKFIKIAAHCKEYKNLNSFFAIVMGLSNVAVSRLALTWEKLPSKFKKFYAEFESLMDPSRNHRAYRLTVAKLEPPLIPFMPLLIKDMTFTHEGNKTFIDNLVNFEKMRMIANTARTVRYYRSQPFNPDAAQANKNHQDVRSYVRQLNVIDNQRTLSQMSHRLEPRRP
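Normalized against a 6.5 mM cAMP agonist control, compounds were tested on 100 nM EPAC2 exchanging Rap1B-bound BODIPY-GDP (250 nM) for 50 uM GDP. Fluorescence drop (ex 480, em 540 nm) was tracked at room temperature over 30 min at 5-min intervals.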
Numbers without * were called inactive; ? = inconclusive; & = joins results of further samples; [ ] = dose if it differs, or a comment. Potency is read from the fitted curve at half-maximal effect. Only part of the results is shown; count on the stated rates, not on these rows.

1. O=C1CC(c2ccc(O)cc2)Oc2cc(O)cc(O)c21 (stereo unspecified)
  EPAC2 ant val: -12%&-13%
2. CCOC(=O)/C=C1\CN(Cc2cc(OC)c(OC)c(OC)c2)S(=O)(=O)c2ccccc21
  EPAC2 ant val: -11%
3. O=c1c(-c2cccs2)nc2cnc(Oc3ccccc3)nc2n1Cc1cccs1
  EPAC2 ant val: -22%
4. CC(C)(C)NC[C@H](O)COc1ccccc1C1CCCC1
  EPAC2 ant val: -17%[56.6 µM]
5. Cn1c(=O)c(-c2ccc(Cl)cc2)nc2cncnc21
  EPAC2 ant val: -7%
6. C[C@@H]1[C@H](c2ccccc2)OCCS(=O)(=O)N1Cc1cccc(Cl)c1
  EPAC2 ant val: -26%
7. O=c1c(CCc2ccccc2)nc2cnc(Nc3ccccc3)nc2n1Cc1cccs1
  EPAC2 ant val: -18%
8. N#CCC(=O)NN
  EPAC2 ant val: -1%
9. C=CCc1ccccc1OCC(O)CNC(C)C (stereo unspecified)
  EPAC2 ant val: -9%&5%&-7%
10. O=c1oc2ccccc2cc1O
  EPAC2 ant val: -8%

11. COc1c(C(C)C)oc2cc3oc(=O)ccc3cc12
  EPAC2 ant val: -18%
12. Nc1cccc2c(N)cccc12
  EPAC2 ant val: ?
13. O=S1(=O)CCO[C@H]2CCCC[C@@H]2N1Cc1ccc(Cl)cc1
  EPAC2 ant val: ?
14. COc1cc(/C(C)=C/c2ccccc2)c2c(c1)oc1ccccc12
  EPAC2 ant val: ?
15. O=C(NCc1cccnc1)[C@@H]1CC=C[C@@H]2CCN(C3CCCCC3)C(=O)[C@@H]21
  EPAC2 ant val: 5%
16. COc1ccc2c(c1)OC(C)CN(CC(=O)NCc1cn[nH]c1-c1ccc(F)cc1)C2 (stereo unspecified)
  EPAC2 ant val: ?
17. COC(=O)Nc1ccc2[nH]cc(CCNC(C)=O)c2c1
  EPAC2 ant val: 8%&-15%
18. CC(C)c1c(C(=O)NCCN2CCOCC2)cnn1-c1nccc(-c2ccco2)n1
  EPAC2 ant val: -11%
19. COc1ccc(CNc2ncncc2-c2ccc(N(C)C)cc2)c(OC)c1
  EPAC2 ant val: ?
20. COc1ccc(-c2nc3cnc(N4CCOCC4)nc3n(C[C@H]3CCCO3)c2=O)cc1
  EPAC2 ant val: -4%

Three entries from above, set out differently.
cpd | molecule | EPAC2 ant val
15 | O=C(NCc1cccnc1)[C@@H]1CC=C[C@@H]2CCN(C3CCCCC3)C(=O)[C@@H]21 | 5%
16 | COc1ccc2c(c1)OC(C)CN(CC(=O)NCc1cn[nH]c1-c1ccc(F)cc1)C2 (stereo unspecified) | ?
14 | COc1cc(/C(C)=C/c2ccccc2)c2c(c1)oc1ccccc12 | ?

Additional entries
21. O=c1oc(Cl)c(Cl)c2ccccc12
  EPAC2 ant val: -21%
22. COC(=O)N1CCC2(CC1)CN(c1ccccn1)C2
  EPAC2 ant val: -6%
23. Cc1cccc(CNc2ccnc(-c3ccc(N(C)C)cc3)n2)c1
  EPAC2 ant val: -29%
24. CCC1(C2CCN(Cc3ccc(C)s3)CC2)NC(=O)N(CC2COc3ccccc3O2)C1=O (stereo unspecified)
  EPAC2 ant val: ?
25. CC(C)[C@H]1COCCS(=O)(=O)N1Cc1ccc(Cl)cc1
  EPAC2 ant val: ?
26. O=C(O)c1cc2cc(Cc3cccnc3)ccc2o1
  EPAC2 ant val: -5%&-11%
27. COc1ccc(/C=C/C(=O)N2CCc3c(cnc(C)c3CNC(=O)c3ccsc3)C2)cc1OC
  EPAC2 ant val: -29%
28. COCC(=O)Nc1cc(C(=O)N[C@H]2CCCCNC2=O)c2c(c1)nc(-c1ccncc1)n2C
  EPAC2 ant val: -17%
29. COc1ccc2c(c1)-c1nc(-n3ncc(C(=O)NCC4CCCN(C)C4)c3C3CC3)ncc1CC2 (stereo unspecified)
  EPAC2 ant val: -28%
30. Cc1nc(CN2CCN(C(=O)CC3(c4ccccc4Cl)CC(=O)N(C)C3=O)CC2)cs1 (stereo unspecified)
  EPAC2 ant val: -3%

Some of the entries above in another layout.
no.	Compound	EPAC2 ant val
25	CC(C)[C@H]1COCCS(=O)(=O)N1Cc1ccc(Cl)cc1	?
29	COc1ccc2c(c1)-c1nc(-n3ncc(C(=O)NCC4CCCN(C)C4)c3C3CC3)ncc1CC2 (stereo unspecified)	-28%
28	COCC(=O)Nc1cc(C(=O)N[C@H]2CCCCNC2=O)c2c(c1)nc(-c1ccncc1)n2C	-17%
26	O=C(O)c1cc2cc(Cc3cccnc3)ccc2o1	-5%&-11%

Other structures.
31. CN1CCN(c2c(F)cc3c(=O)c(C(=O)O)cn4c3c2OCN4C)CC1
  EPAC2 ant val: -13%
32. CCSc1nnc(C(C)NS(=O)(=O)c2cccc(Cl)c2C)n1C (stereo unspecified)
  EPAC2 ant val: -12%
33. COC(=O)[C@@H]1CCCN1C(=O)c1c(OC)cc(=O)n2c1CCN(Cc1ccc(C)o1)CC2
  EPAC2 ant val: -26%
34. Cc1cccc(CNc2ccnc(-c3ccccc3C(F)(F)F)n2)c1
  EPAC2 ant val: ?
35. CC1(C)CC[C@]2(C(=O)O)CC[C@]3(C)C(=CCC4[C@@]5(C)CC[C@H](O)C(C)(C)[C@@H]5CC[C@]43C)C2C1 (stereo partly specified)
  EPAC2 ant val: -6%
36. CC(C)NC(=O)N1CC[C@@]2(CCCN(C(=O)Oc3ccccc3)C2)C1
  EPAC2 ant val: -25%
37. O=c1[nH]c(=O)c2nc(Br)n(C3OC(CO)C(O)C3O)c2[nH]1 (stereo unspecified)
  EPAC2 ant val: -10%
38. Brc1c(Br)c(Br)c2n[nH]nc2c1Br
  EPAC2 ant val: 40µM*
39. COc1cccc(N2[C@@H](CC(C)=O)c3ccc(/C=C/C(C)=O)cc3S2(=O)=O)c1
  EPAC2 ant val: -29%
40. CC1CCC(=O)N(CCSc2ccccc2)CC1 (stereo unspecified)
  EPAC2 ant val: ?

41. COc1ccc(OC)c(-c2ccnc(-n3ncc(C(=O)N(C)CCO)c3C3CC3)n2)c1
  EPAC2 ant val: -1%
42. Cc1noc(C)c1-c1nc(Nc2ccccc2)c2ccccc2n1
  EPAC2 ant val: -10%
43. O=C(O)C1CC(C2CCCCN2)CN2CCCCC12 (stereo unspecified)
  EPAC2 ant val: -4%
44. C[C@@H](C1[C@@H](O)CC2C3C=CC4C[C@@H](O)CC[C@]4(C)[C@H]3CC[C@@]21C)[C@@H]1CCCCN1 (stereo partly specified)
  EPAC2 ant val: -14%
45. O=c1c(O)c(-c2ccc(O)c(O)c2)oc2c(OC3OC(CO)C(O)C(O)C3O)c(O)cc(O)c12 (stereo unspecified)
  EPAC2 ant val: 27%
46. CN1CCc2c(c3ccccc3n2Cc2ccccc2)C1
  EPAC2 ant val: -10%
47. CCCCCC[C@@H]([C@@H](C)O)n1cnc2c(N)ncnc21
  EPAC2 ant val: ?
48. COc1ccc(C(C)N(C)Cc2nc(N3CCN(C(=O)c4ccco4)CC3)c3ccccc3n2)cc1 (stereo unspecified)
  EPAC2 ant val: -25%
49. N[C@H](C(=O)O)c1ccc(C(=O)O)c(O)c1
  EPAC2 ant val: -2%&-12%
50. O=C(c1cccc(Cl)c1)N1CCCC(Cn2cc(C(=O)N3CCCC3)nn2)C1 (stereo unspecified)
  EPAC2 ant val: -25%

Laid out differently: entries from further up.
No.	Compound	EPAC2 ant val
39	COc1cccc(N2[C@@H](CC(C)=O)c3ccc(/C=C/C(C)=O)cc3S2(=O)=O)c1	-29%
40	CC1CCC(=O)N(CCSc2ccccc2)CC1 (stereo unspecified)	?

Next part.
51. Cc1noc(C)c1-c1ccc2ncnc(NC3CCNCC3)c2c1
  EPAC2 ant val: -7%
52. C=C1Cc2c(Cl)cc3[nH]c4c5c3c2[C@@]2(O)[C@@H]1C[C@@H]2C(C)(C)O[C@H]5[C@@H]1CC[C@@]2(O)[C@@]35O[C@@H]3[C@@H](O)[C@@H](C(=O)O)O[C@H]5CC[C@]2(C)[C@@]41C
  EPAC2 ant val: -35%
53. COC(=O)c1ccccc1NC(=O)c1ccc(F)cc1
  EPAC2 ant val: ?
54. COc1ccccc1-c1cncnc1NCc1cccc(C)c1
  EPAC2 ant val: ?
55. COc1ccc(/C=C/C(=O)N2CCc3c(cnc(C)c3CNS(=O)(=O)c3cccs3)C2)cc1
  EPAC2 ant val: -14%
56. C#Cc1cccc(C(=O)NCc2nc(-c3cccc(NC(=O)c4ccccn4)c3)oc2C)c1
  EPAC2 ant val: -10%
57. O=c1cc(-c2ccc(O)cc2)oc2cc(O)cc(O)c12
  EPAC2 ant val: 1%&-8%&-12%&15%&-27%
58. COc1cccc(Cn2c(=O)c(C)nc3cnc(Nc4ccccc4)nc32)c1
  EPAC2 ant val: -14%
59. c1ccc2nc(C3=NCCN3)cnc2c1
  EPAC2 ant val: ?
60. COC(=O)C1C2CC3c4[nH]c5cc(OC)ccc5c4CCN3CC2CC(OC(=O)c2cc(OC)c(OC)c(OC)c2)C1OC (stereo unspecified)
  EPAC2 ant val: -17%

5 entries drawn at random from the list so far:
34. Cc1cccc(CNc2ccnc(-c3ccccc3C(F)(F)F)n2)c1
  EPAC2 ant val: ?
54. COc1ccccc1-c1cncnc1NCc1cccc(C)c1
  EPAC2 ant val: ?
4. CC(C)(C)NC[C@H](O)COc1ccccc1C1CCCC1
  EPAC2 ant val: -17%[56.6 µM]
32. CCSc1nnc(C(C)NS(=O)(=O)c2cccc(Cl)c2C)n1C (stereo unspecified)
  EPAC2 ant val: -12%
58. COc1cccc(Cn2c(=O)c(C)nc3cnc(Nc4ccccc4)nc32)c1
  EPAC2 ant val: -14%

(further entries)
61. CCCCN1C[C@H](Cc2ccccc2)[C@@H](CC(=O)NCc2ccc(OC)cc2)C1=O
  EPAC2 ant val: -25%
62. C[C@@H]1Oc2ccccc2C=C1/C=C/C(=O)O
  EPAC2 ant val: -2%
63. O=C(Nc1ccccc1)Nc1ccccc1
  EPAC2 ant val: -8%
64. COc1cccc(OC)c1CN1CCC2(CCC(CNC(=O)c3ccccc3)O2)CC1 (stereo unspecified)
  EPAC2 ant val: -24%
65. CN(C)c1ccc(/C=C/c2ccnc3ccccc23)cc1Cl
  EPAC2 ant val: ?
66. O=C(c1ccc(F)cc1)C1CCN(CCn2c(=S)[nH]c3ccccc3c2=O)CC1
  EPAC2 ant val: -20%
67. O=C(Nc1cccc(F)c1)N1CC2(CCN(S(=O)(=O)c3ccccc3)CC2)C1
  EPAC2 ant val: -23%
68. COC(=O)C[C@H]1c2ccccc2S(=O)(=O)N1C(C)C
  EPAC2 ant val: -15%
69. CCCCCCCCCCCCC/C=C/[C@@H](O)[C@H](CO)N(C)C
  EPAC2 ant val: -16%[11.4 µM]
70. CCNc1ncc2nc(-c3cn(C)c4ccccc34)c(=O)n(C)c2n1
  EPAC2 ant val: 16%

71. CCCCC/C=C\C/C=C\C/C=C\C=C\[C@@H](O)CCCC(=O)O
  EPAC2 ant val: -12%[1.17 µM]
72. COc1ccccc1CN1CCCC2(CCN(S(C)(=O)=O)CC2)C1
  EPAC2 ant val: -11%
73. C#CCN(C1CCCC1)S(=O)(=O)C=C
  EPAC2 ant val: -11%
74. Cc1c(C(=O)N2CCCCCC2)sc2ncnc(NCC3CCCO3)c12 (stereo unspecified)
  EPAC2 ant val: 8%
75. CC(CCC(=O)O)C1CCC2C3CC[C@H]4CC(O)CC[C@@]4(C)C3CC(O)[C@]12C (stereo partly specified)
  EPAC2 ant val: -13%
76. COc1ccccc1C1CN(CCNC(=O)c2ccc3c(c2)OCCO3)Cc2ccccc2O1 (stereo unspecified)
  EPAC2 ant val: -15%
77. COC(=O)c1c(Cl)c(Cl)c(C(=O)OC)c(Cl)c1Cl
  EPAC2 ant val: -22%
78. COc1cc(OC)cc(OC)c1
  EPAC2 ant val: -5%
79. COc1ccc(C(=O)N2CCC[C@@]3(CCN(c4ccccc4)C3)C2)cc1
  EPAC2 ant val: ?
80. COc1ccc(CN2CCC(=O)N([C@H](CO)c3ccccc3)CC2)cc1
  EPAC2 ant val: -19%

81. C=C1CC[C@H](O)CC1=C/C=C1\CCC[C@]2(C)[C@@H]([C@H](C)CC[C@@H](O)C(C)(C)O)CC[C@@H]12
  EPAC2 ant val: -27%
82. NCCCCC(NC(CCc1ccccc1)C(=O)O)C(=O)N1CCCC1C(=O)O (stereo unspecified)
  EPAC2 ant val: -8%
83. Cc1cc(=O)[nH]c2ccc(O)cc12
  EPAC2 ant val: -4%
84. CC(C)c1ccc(Cn2ccc3c4c(N)nc(NC5CC5)nc4ccc32)cc1
  EPAC2 ant val: -31%
85. Cc1cnc(CNc2ncnc3ccc(-c4c(C)noc4C)cc23)cn1
  EPAC2 ant val: -16%
86. CC1=C(C(=O)OC(C)C)[C@@H](c2cccc3nonc23)C([N+](=O)[O-])=C(C)N1
  EPAC2 ant val: -51%
87. COc1ccc(CN2CC[C@H]3C=CC[C@@H](C(=O)Nc4ccccc4)[C@H]3C2=O)cc1OC
  EPAC2 ant val: -2%&-22%
88. CS(=O)(=O)Nc1cccc(-c2nc(N3CCNCC3)c3ccccc3n2)c1
  EPAC2 ant val: -24%
89. COc1ccc(CNC(=O)C2CCCN2c2nc(C)c3ccccc3n2)cc1 (stereo unspecified)
  EPAC2 ant val: -29%
90. NC(C(=O)O)c1cccc(O)c1 (stereo unspecified)
  EPAC2 ant val: -10%
91. CCCC[C@@H](C=O)NC(=O)[C@H](CC(C)C)NC(=O)OCc1ccccc1
  EPAC2 ant val: ?
92. N=C(N)c1ccc(/C=C/c2ccc(C(=N)N)cc2O)cc1
  EPAC2 ant val: 9%
